RE007 growth inh: less growth of the S. pombe RE007 Vpr strain; S. pombe RE007 Vpr strain, BacTiter-Glo ATP luminescence, 24 h; control for the full effect not named in the record; Potency, µM (doses to about 92.2 µM), inactives show top-dose activity change, negative = less growth; 0.21% of 360,000 active; active = well fitted falling curve with a large enough effect; inconclusive = small, poorly fitted or top-dose-only effect; inactive = no such curve, though single readings can be large or run the other way;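 also: % is scaled to controls: 0 for no effect and ±100 for the full control effect; nearly all actives have a fitted effect of over 50% in size; the assay follows cell death caused by Vpr and the record does not say whether a fall means rescue or toxicity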
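Fission yeast strain RE007, carrying one chromosomally integrated HIV-1 vpr copy, was seeded at OD 0.01 in PMG+AL medium with 23 nL pinned compound. After 24 h at 30 °C and 99% humidity, viability was read by BacTiter-Glo luminescence.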
Cruzain inh Det: blocks cruzain activity in presence of Triton detergent; P25779; Potency, µM, without a hit: max response, negative = inhibition, hits mostly inhibitors; purified cruzain, Z-FR-AMC fluorescence, 0.01% Triton; 0.43% of 200,000 active;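 also: plate controls were neutral wells for no effect and buffer without enzyme for full effect; nearly all actives have a fitted effect of over 40% in size; top concentration of the series not given in the record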
Target sequence (P25779 123-467 limits assumed): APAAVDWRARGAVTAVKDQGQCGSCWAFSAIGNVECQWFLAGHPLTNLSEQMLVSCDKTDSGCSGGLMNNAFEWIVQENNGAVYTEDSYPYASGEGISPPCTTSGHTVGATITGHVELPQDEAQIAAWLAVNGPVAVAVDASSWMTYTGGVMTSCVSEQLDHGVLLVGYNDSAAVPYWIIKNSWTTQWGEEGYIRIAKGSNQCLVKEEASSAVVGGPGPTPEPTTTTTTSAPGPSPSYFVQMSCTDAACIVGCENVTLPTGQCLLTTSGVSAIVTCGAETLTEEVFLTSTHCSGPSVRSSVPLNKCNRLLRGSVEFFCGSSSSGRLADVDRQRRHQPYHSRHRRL
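Enzyme 1.5 nM, Z-FR-AMC 2 uM, NaOAc 100 mM pH 5.5, DTT 5 mM, Triton X-100 0.01%; 15 min RT compound preincubation; kinetic ex360/em450, 60 s delta.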
NS1 inh: blocks influenza NS1 protein function. 0.4% of 270,000 active. Potency, µM (series often up to 46.1 µM), without a hit: at the top dose activity, positive = more growth. S. cerevisiae slowed by influenza A NS1, growth recovery by OD600; active means well fitted rising curve with a large enough effect; inconclusive means small, poorly fitted or top-dose-only effect; inactive means no such curve, though single readings can be large or run the other way; also: nearly all actives have a fitted effect of over 50% in size
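Growth recovery, yeast-based: influenza A NS1 expressed in S. cerevisiae causes slow growth, and suppressors are detected by OD600. The parent strain without NS1 is used as positive control.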
MARV entry inh: blocks Marburg virus binding to or entry into cells; Marburg virus pseudotyped entry inhibition, cell reporter; control for the full effect not named in the record; about a third of the inactives were read at about 46 µM; Potency, µM (top dose mostly 37.8 µM), for the others: at the top dose activity change, negative = inhibition, usual class: inhibitors; 1.8% of 300,000 active; active = well fitted inhibition curve with a large enough effect; inconclusive = small, poorly fitted or top-dose-only effect, or effect the other way; inactive = flat fitted curve, though single readings scatter; tested in HEK293 cells; about a fifth of its hits are not listed in these tables; also: % is scaled to controls: 0 for no effect and ±100 for the full control effect; luciferase read-out
StopGo reporter: lowers the luciferase signal of an FMDV 2A StopGo reporter; human cells with a luciferase reporter of 2A StopGo recoding; control for the full effect not named in the record; 1.2% of 410,000 active; Potency, µM (highest dose often 57.9 µM), without a hit: top-dose signal change, negative = less light; active = well fitted falling curve with a large enough effect; inconclusive = small, poorly fitted or top-dose-only effect; inactive = no such curve, though single readings can be large or run the other way; tested in HEK293T cells; also: % is scaled to controls: 0 for no effect and ±100 for the full control effect; nearly all actives have a fitted effect of over 45% in size; luciferase light after 4 h
Cruzain inh noDet: inhibitors of Trypanosoma cruzi cruzain without detergent; P25779; 2.3% of 200,000 active; Potency, µM, inactives show max response, negative = inhibition, most hits filed as inhibitors; purified cruzain, Z-FR-AMC fluorescence, no detergent;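 also: plate controls were enzyme without inhibitor for no effect and buffer without enzyme for full effect; nearly all actives have a fitted effect of over 40% in size; top concentration of the series not given in the record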
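Purified cruzain at 1.5 nM, pre-incubated 15 min with compound at room temperature in 100 mM sodium acetate pH 5.5, 5 mM DTT, 0.00005% Triton X-100. Reaction started with 2 uM Z-FR-AMC; AMC fluorescence increase over 60 s gives rate.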
SARS PLpro yeast: blocks SARS-CoV papain-like protease in a yeast assay; 0.19% of 330,000 active; AID 485353; Potency, µM (highest dose often 32.9 µM), inactives show top-dose activity, positive = growth rescue; S. cerevisiae expressing SARS-CoV PLpro, growth rescue; control for the full effect not named in the record; active means well fitted rising curve with a large enough effect; inconclusive means small, poorly fitted or top-dose-only effect; inactive means no such curve, though single readings can be large or run the other way; also: 0% is about no effect; nearly all actives have a fitted effect of over 55% in size; growth read by luminescence after 48 h
Lassa entry inh: inhibitors of Lassa virus binding or cell entry; Lassa virus pseudotype entry inhibition, cell reporter; control for the full effect not named in the record; Potency, µM (series often up to 37.9 µM), for inactives: at the highest dose activity change, negative = inhibition, hits mostly inhibitors; 1.2% of 300,000 active; active means well fitted inhibition curve with a large enough effect; inconclusive means small, poorly fitted or top-dose-only effect, or effect the other way; inactive means flat fitted curve, though single readings scatter; tested in HEK293 cells; also: % is scaled to controls: 0 for no effect and ±100 for the full control effect; nearly all actives have a fitted effect of over 50% in size; luciferase read-out
An asterisk follows results filed as active; ? = inconclusive; nt = not tested or not shown; [ ] = dose if it differs, or a comment. Unless noted, calls follow the shape of the dose curve; as a rule, active = well fitted curve in the direction sought with a large enough effect; inconclusive = small, poorly fitted or top-dose-only effect, or another doubt; inactive = no such curve, though single readings can be large; an effect the other way counts as inactive or inconclusive. Potency is read from the fitted curve at half-maximal effect. Compounds as they come; 4.8% or so of the library scored in one or more.

Each structure is followed by: NS1 inh	Cruzain inh noDet	MARV entry inh	Cruzain inh Det	RE007 growth inh	StopGo reporter	Lassa entry inh	SARS PLpro yeast
1. CCC1(CC)Cc2ccccc2C(Nc2c(C)n(C)n(-c3ccccc3)c2=O)=N1
 : 7%	-4%	6%	-1.7%	8%	-18%	-2%	4%
2. Cc1nc2ccccc2c(=O)n1-c1ccc(Br)cc1[N+](=O)[O-]
 : 2%	nt	nt	nt	-4%	-13%	nt	1%
3. c1ccc(CCN2CN(CCCN3CCOCC3)c3nc4ccccc4n3C2)cc1
 : 1%	5%	4%	-7.8%	12%	15%	0%	6%
4. CCn1c2ccccc2c2cc(/C(C)=N/O)ccc21
 : -40%	2%	?	-9.6%	?	-2%	5%	-19%
5. O=C(CCCCn1c(=O)c2ccccc2n(Cc2ccc(F)cc2Cl)c1=O)NCCc1ccc(Cl)cc1
 : nt	-4%	16%[46.1 µM]	-2.1%	nt	-28%	9%[46.1 µM]	nt
6. CCOc1cccc(N2C(=O)CC(N3CCN(c4ccc(S(=O)(=O)CC)cc4)CC3)C2=O)c1 (stereo not given)
 : -1%	?	12%	-0.2%	-8%	-12%	-4%	-32%
7. O=C(Nc1nc2ccccc2c(=O)s1)c1ccc(F)cc1Cl
 : -1%	nt	nt	nt	-6%	-1%	nt	1%
8. CC(C)(C)c1ccc(O)c(/C=N\O)c1
 : -24%	2%	10%	-7.7%	-1%	40%[activator]	-7%	-15%
9. CCc1nc2ccc(C(=O)N(C)CC(=O)Nc3ccccc3C(F)(F)F)cc2nc1CC
 : nt	nt	-15%[46.1 µM]	nt	15%	-24%	0%[46.1 µM]	-6%
10. Cn1ccnc1SCC(=O)c1ccc2ccccc2c1
 : 1%	nt	?	nt	-18%	20%	-23%	14%
11. COc1ccccc1CNC(=O)COC(=O)CNS(=O)(=O)c1ccc(C)cc1
 : 29%	nt	-9%	nt	24%	-9%	7%	-4%
12. COc1ccc(C(c2nnnn2Cc2ccccc2)N2CCN(c3nc4ccccc4s3)CC2)cc1 (stereo not given)
 : 12%	?	?	-0.1%	24%	-28%	11µM*	0%
13. CC1=C(C(=O)OCCOc2ccccc2)C(c2ccsc2)NC(=O)N1C (stereo not given)
 : nt	nt	?	nt	12%	?	?	1%
14. Cc1ccc(SCC(=O)OCC(=O)N(CC(C)C)C2CCS(=O)(=O)C2)cc1C (stereo not given)
 : nt	nt	?	nt	-4%	-6%	1%[46.1 µM]	4%
15. OC(COCc1ccc2c(c1)OCO2)CN1CCN(Cc2ccccc2)CC1 (stereo not given)
 : 4%	0%	-9%	6.8%	-4%	-22%	0%	-2%
16. CC(=O)C1(C)N(O)C(C)(C)C(c2cccs2)=[N+]1[O-] (stereo not given)
 : -3%	nt	-1%[14.2 µM]	nt	1%	-7%	12%	-3%
17. CN1CCN(Cc2nnc(-c3ccccc3)o2)CC1
 : 3%	nt	nt	nt	27%	6%	nt	1%
18. Cc1ccc(NS(=O)(=O)c2cc(C(=O)N3CCc4ccccc4C3)ccc2Cl)cc1
 : -2%	-9%	-20%	-5.5%	-8%	nt	?	-5%
19. Fc1ccc(OCCCCN2CCOCC2)cc1
 : nt	nt	19%[46.1 µM]	nt	33%	2%	nt	3%
20. CC(=O)OC(COc1ccccc1)Cn1cnc2ccccc21 (stereo not given)
 : 5%	nt	nt	nt	-1%	3%	nt	1%

Next section.
Each structure is followed by: NS1 inh	Cruzain inh noDet	MARV entry inh	Cruzain inh Det	RE007 growth inh	StopGo reporter	Lassa entry inh	SARS PLpro yeast
21. COc1ccc2c(c1)/C(=N/OC(=O)c1cccs1)CCC2
 : nt	nt	21%[46.1 µM]	nt	-7%	-9%	-2%	-21%
22. COc1ccc(/C=N/NC(=O)CCN2CCN(c3ccccc3)CC2)c(OC)c1OC
 : -8%	3%	6%	0.8%	-15%	-11%	?	?
23. CCOc1cc(C(c2c(C)[nH][nH]c2=O)c2c(C)[nH][nH]c2=O)ccc1OS(=O)(=O)c1ccc(C)cc1
 : 1%	2%	4%	-3.7%	18%	6%	8%	-5%
24. O=C(Nc1ccccc1C(=O)NCc1ccco1)c1ccccc1
 : -82%	-5%	-3%	-17%	1%	-4%	2%	-19%
25. CCCCOC(=O)c1ccc(NC(=O)c2cc(Cl)c(Cl)cc2C(=O)O)cc1
 : 4%	nt	-25%[46.1 µM]	nt	0%	-5%	nt	0%
26. Cc1ccccc1N=Cc1cccc(O)c1O
 : -46%	3%	?	-7.0%	nt	-4%	?	-86%
27. CC(C(=O)NC1CCCC1)N1CCN(S(=O)(=O)c2ccccc2Cl)CC1 (stereo not given)
 : nt	nt	-6%[46.1 µM]	nt	2%	-19%	-29%	3%
28. COc1ccc(Cl)cc1N1C(=NC(=O)C2CCCO2)SC2CS(=O)(=O)CC21 (stereo not given)
 : 4%	nt	?	nt	-16%	5%	0%[46.1 µM]	27%
29. CC(=O)NC(CC(=O)OCC(=O)N1CCc2ccccc21)c1ccccc1 (stereo not given)
 : 0%	nt	nt	nt	-13%	7%	nt	0%
30. O=C(Nc1ccccc1F)C1CCN(C(=O)NCc2ccccc2)CC1
 : -5%	nt	15%[46.1 µM]	nt	-1%	-15%	5%	3%
31. Cc1ccc(Cc2nc3ccccc3nc2SCC(=O)N2CCN(c3ccccc3)CC2)cc1
 : nt	4%	nt	0.3%	nt	20%	2%[46.1 µM]	nt
32. C=CCc1cccc2cc(C(=O)OCC)c(=O)oc12
 : -6%	-2%	?	-6.6%	-27%	-22%	28%	29%
33. COc1ccc(N2CCN(C(=O)c3cc(N4C(=O)C5C6CCC(C6)C5C4=O)ccc3Cl)CC2)cc1 (stereo not given)
 : -1%	?	?	-0.7%	-2%	?	4%	-17%
34. CC1(c2nnc(-c3ccc(Cl)cc3)o2)CC(c2cccc(Cl)c2)=NO1 (stereo not given)
 : -8%	nt	nt	nt	12%	3%	nt	4%
35. CCc1ccc(NC(=O)COC(=O)CCc2nc3cc(S(=O)(=O)N(CC)CC)ccc3n2C)cc1
 : -6%	28%	-24%	-5.2%	12%	8%	10%	0%
36. O=C(CN1C(=O)S/C(=C\C=C\c2ccccc2)C1=O)N1CCCCC1
 : -4%	nt	-6%	nt	6%	-4%	-12%	-8%
37. COC(=O)c1cc(NS(=O)(=O)c2ccc(N3CCOCC3)c(N)c2)cc(C(=O)OC)c1
 : ?	-3%	?	1.3%	3%	-14%	-17%	?
38. CC(Oc1ccc(/C=N/NC(=O)Cc2cccc3ccccc23)cc1)C(=O)O (stereo not given)
 : -1%	nt	nt	nt	-17%	21%	nt	-2%
39. Cc1ccc(-c2cc(-c3ccc(F)cc3)c(C#N)c(N)n2)o1
 : -26%	23%	?	-17%	?	-2%	?	-43%
40. CC(NC(=O)c1ccco1)C(=O)N(C)Cc1ccc(C(F)(F)F)cc1 (stereo not given)
 : 0%	nt	17%[46.1 µM]	nt	11%	-26%	6%	-3%

Carrying on:
Each structure is followed by: NS1 inh	Cruzain inh noDet	MARV entry inh	Cruzain inh Det	RE007 growth inh	StopGo reporter	Lassa entry inh	SARS PLpro yeast
41. N#Cc1cccc(C(=O)OCc2cccc(S(=O)(=O)N3CCOCC3)c2)c1
 : nt	nt	4%	nt	-3%	-18%	-2%	-2%
42. COc1ccc(CC(=O)Nc2ccc3c(C)cc(=O)oc3c2)cc1OC
 : 11%	-5%	?	-2.3%	-2%	-11%	0%	-13%
43. CC(=O)c1cccc(NC(=O)c2nc(-c3ccccc3)n(-c3ccccc3C)n2)c1
 : nt	7.9µM*	-2%[46.1 µM]	-5.9%	nt	-25%	-3%[46.1 µM]	nt
44. CCn1c2ccccc2c2cc(CN3CCN(S(=O)(=O)Cc4ccccc4)CC3)ccc21
 : 14%	-21%	?	-2.8%	2%	0%	-4%	-5%
45. COc1ccccc1NS(=O)(=O)c1cccc(C(=O)N/N=C/c2ccc3c(c2)OCCO3)c1
 : 3%	?	0%	-11%	8%	11%	10%	-6%
46. O=C(c1cccc(Oc2ccc([N+](=O)[O-])cc2Cl)c1)N1CCCCC1
 : nt	nt	3%	nt	9%	-26%	2%	0%
47. COc1ccc(N2CCN(C(=O)CNC(=O)c3ccco3)CC2)cc1
 : 8%	nt	5%	nt	4%	-12%	3%	-4%

Of the compounds above, these contain fluorine:
Each structure is followed by: NS1 inh	Cruzain inh noDet	MARV entry inh	Cruzain inh Det	RE007 growth inh	StopGo reporter	Lassa entry inh	SARS PLpro yeast
5. O=C(CCCCn1c(=O)c2ccccc2n(Cc2ccc(F)cc2Cl)c1=O)NCCc1ccc(Cl)cc1
 : nt	-4%	16%[46.1 µM]	-2.1%	nt	-28%	9%[46.1 µM]	nt
7. O=C(Nc1nc2ccccc2c(=O)s1)c1ccc(F)cc1Cl
 : -1%	nt	nt	nt	-6%	-1%	nt	1%
9. CCc1nc2ccc(C(=O)N(C)CC(=O)Nc3ccccc3C(F)(F)F)cc2nc1CC
 : nt	nt	-15%[46.1 µM]	nt	15%	-24%	0%[46.1 µM]	-6%
19. Fc1ccc(OCCCCN2CCOCC2)cc1
 : nt	nt	19%[46.1 µM]	nt	33%	2%	nt	3%
30. O=C(Nc1ccccc1F)C1CCN(C(=O)NCc2ccccc2)CC1
 : -5%	nt	15%[46.1 µM]	nt	-1%	-15%	5%	3%
39. Cc1ccc(-c2cc(-c3ccc(F)cc3)c(C#N)c(N)n2)o1
 : -26%	23%	?	-17%	?	-2%	?	-43%
40. CC(NC(=O)c1ccco1)C(=O)N(C)Cc1ccc(C(F)(F)F)cc1 (stereo not given)
 : 0%	nt	17%[46.1 µM]	nt	11%	-26%	6%	-3%

Screening results as filed in PubChem.
